RE007 growth inh = less growth of the S. pombe RE007 Vpr strain; actives 0.21% (n = 360,000); Potency, µM (highest dose often 92.2 µM), for the others: at the highest dose activity change, negative = less growth; S. pombe RE007 Vpr strain, BacTiter-Glo ATP luminescence, 24 h; control for the full effect not named in the record; active = well fitted falling curve with a large enough effect; inconclusive = small, poorly fitted or top-dose-only effect; inactive = no such curve, though single readings can be large or run the other way;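 also: % is scaled to controls: 0 for no effect and ±100 for the full control effect; nearly all actives have a fitted effect of over 50% in size; the assay follows cell death caused by Vpr and the record does not say whether a fall means rescue or toxicity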
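Fission yeast strain RE007, carrying one chromosomally integrated HIV-1 vpr copy, was seeded at OD 0.01 in PMG+AL medium with 23 nL pinned compound. After 24 h at 30 °C and 99% humidity, viability was read by BacTiter-Glo luminescence.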
NS1 inh = inhibitors of influenza NS1 protein function; S. cerevisiae slowed by influenza A NS1, growth recovery by OD600; AID 2326; Potency, µM (top dose mostly 46.1 µM), without a hit: at the highest dose activity, positive = more growth; actives 0.4% (n = 270,000); also: actives are rising curves; nearly all actives have a fitted effect of over 50% in size
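A cell-based growth assay was used: compounds that relieve NS1-induced slow growth of budding yeast raise OD600. Assay medium was yeast nitrogen base with ammonium sulphate and -URA supplement, pH 6.0, with 2% galactose.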
MARV entry inh = blocks Marburg virus binding to or entry into cells. Marburg virus pseudotyped entry inhibition, cell reporter; control for the full effect not named in the record; about a third of the inactives were read at about 46 µM. Potency, µM (highest dose often 37.8 µM), for inactives: at the top dose activity change, negative = inhibition, actives largely listed as inhibitors. actives 1.8% (n = 300,000). AID 540276; active = well fitted inhibition curve with a large enough effect; inconclusive = small, poorly fitted or top-dose-only effect, or effect the other way; inactive = flat fitted curve, though single readings scatter; tested in HEK293 cells; about a fifth of its hits are not listed in these tables; also: % is scaled to controls: 0 for no effect and ±100 for the full control effect; luciferase read-out
Cruzain inh noDet = cruzain (T. cruzi) inhibition without detergent | actives 2.3% (n = 200,000) | P25779 | Potency, µM, inactives show max response, negative = inhibition, usual class: inhibitors | purified cruzain, Z-FR-AMC fluorescence, no detergent; active = well fitted curve in the direction sought with a large enough effect; inconclusive = small, poorly fitted or top-dose-only effect, or another doubt; inactive = no such curve, though single readings can be large; an effect the other way counts as inactive or inconclusive;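 also: plate controls were enzyme without inhibitor for no effect and buffer without enzyme for full effect; nearly all actives have a fitted effect of over 40% in size; top concentration of the series not given in the record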
Target sequence (P25779 123-467 limits assumed): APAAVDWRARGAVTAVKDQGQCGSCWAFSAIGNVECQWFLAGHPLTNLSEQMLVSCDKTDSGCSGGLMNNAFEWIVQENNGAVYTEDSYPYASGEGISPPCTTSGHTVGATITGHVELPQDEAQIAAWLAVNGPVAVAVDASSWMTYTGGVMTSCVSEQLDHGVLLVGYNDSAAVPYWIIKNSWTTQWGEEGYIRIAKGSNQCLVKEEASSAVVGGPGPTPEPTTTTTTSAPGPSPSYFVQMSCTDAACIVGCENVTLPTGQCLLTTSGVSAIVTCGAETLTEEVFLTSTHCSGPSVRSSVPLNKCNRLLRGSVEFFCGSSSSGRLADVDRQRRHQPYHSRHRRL
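Purified cruzain at 1.5 nM, pre-incubated 15 min with compound at room temperature in 100 mM sodium acetate pH 5.5, 5 mM DTT, 0.00005% Triton X-100. Reaction started with 2 uM Z-FR-AMC; AMC fluorescence increase over 60 s gives rate.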
StopGo reporter = FMDV 2A StopGo reporter, luciferase signal. human cells with a luciferase reporter of 2A StopGo recoding; control for the full effect not named in the record. Potency, µM (highest dose often 57.9 µM), for the others: at the top dose signal change, negative = less light. actives 1.2% (n = 410,000). AID 1159524; active = well fitted falling curve with a large enough effect; inconclusive = small, poorly fitted or top-dose-only effect; inactive = no such curve, though single readings can be large or run the other way; tested in HEK293T cells; also: % is scaled to controls: 0 for no effect and ±100 for the full control effect; nearly all actives have a fitted effect of over 45% in size; luciferase light after 4 h
SARS PLP yeast = inhibitors of SARS-CoV papain-like protease in yeast. S. cerevisiae expressing SARS-CoV PLpro, growth rescue; control for the full effect not named in the record. Potency, µM (series often up to 32.9 µM), without a hit: top-dose activity, positive = growth rescue. actives 0.19% (n = 330,000); also: 0% is about no effect; nearly all actives have a fitted effect of over 55% in size; growth read by luminescence after 48 h
Lassa entry inh = inhibitors of Lassa virus binding or cell entry. Lassa virus pseudotype entry inhibition, cell reporter; control for the full effect not named in the record. AID 540256. Potency, µM (highest dose often 37.9 µM), for the others: at the highest dose activity change, negative = inhibition, usual class: inhibitors. actives 1.2% (n = 300,000); active means well fitted inhibition curve with a large enough effect; inconclusive means small, poorly fitted or top-dose-only effect, or effect the other way; inactive means flat fitted curve, though single readings scatter; tested in HEK293 cells; also: % is scaled to controls: 0 for no effect and ±100 for the full control effect; nearly all actives have a fitted effect of over 50% in size; luciferase read-out
Cruzain inh Det = blocks cruzain activity in presence of Triton detergent. AID 1478. actives 0.43% (n = 200,000). P25779. Potency, µM, without a hit: max response, negative = inhibition, hits mostly inhibitors. purified cruzain, Z-FR-AMC fluorescence, 0.01% Triton; active = well fitted curve in the direction sought with a large enough effect; inconclusive = small, poorly fitted or top-dose-only effect, or another doubt; inactive = no such curve, though single readings can be large; an effect the other way counts as inactive or inconclusive;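 also: plate controls were neutral wells for no effect and buffer without enzyme for full effect; nearly all actives have a fitted effect of over 40% in size; top concentration of the series not given in the record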
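Detergent-containing arm of a paired screen for aggregation-based inhibition: 0.01% Triton X-100 present. Cruzain at 1.5 nM cleaved 2 uM Z-FR-AMC at pH 5.5 with 5 mM DTT; AMC fluorescence gain over 60 s measured activity.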
* hit, by the source's call; ? = inconclusive; · = no result given; [ ] = dose if it differs, or a comment. Unless noted, calls follow the shape of the dose curve; as a rule, active means well fitted rising curve with a large enough effect; inconclusive means small, poorly fitted or top-dose-only effect; inactive means no such curve, though single readings can be large or run the other way. Potency is read from the fitted curve at half-maximal effect.

canonical_smiles	MARV entry inh	Cruzain inh Det	RE007 growth inh	SARS PLP yeast	StopGo reporter	NS1 inh	Cruzain inh noDet	Lassa entry inh
COc1ccc(NC2CCCN(C(=O)CCC(=O)c3ccc(F)cc3)C2)cc1 (stereo not drawn)	6.5%	·	-10.2%	-0.7%	3.6%	5.8%	·	?
Cc1ccc(S(=O)(=O)CC(=O)N2CCN(c3nc4c(F)cccc4s3)CC2)cc1	·	-4.9%	·	·	0.0%	·	12.1%	-0.4%[46.1 µM]
N#Cc1ccc(NC(=O)COC(=O)CCc2ccc(S(=O)(=O)N3CCCCC3)cc2)cc1	?	-3.3%	·	-0.3%	11.8%	3.7%	7.5%	3.6%
CCOC(=O)c1[nH]c(=O)[nH]c1CSc1nc(C)cc(C)n1	0.7%	?	-3.0%	-1.8%	6.7%	8.1%	-5.6%	9.7%
CCOc1cc(/C=N/NC(N)=O)ccc1OC(=O)c1ccc(C)cc1	0.0%	-3.4%	·	-0.7%	·	-11.1%	4.1%	·
O=c1oc2ccccc2c(Nc2ccc(O)cc2)c1[N+](=O)[O-]	-21.5%	-5.0%	-12.8%	7.2%	?	-7.5%	-12.6%	-26.6%
Oc1ccc(O)c(Cc2nc3ccccc3[nH]2)c1	-4.3%[46.1 µM]	·	-8.5%	-1.2%	-12.3%	9.7%	·	-23.1%[46.1 µM]
CCN(CC(=O)N1CCCC1)S(=O)(=O)c1ccc(Br)cc1	10.9%	·	-1.4%	-1.3%	-4.0%	11.2%	·	?
CCc1ccccc1N(C)S(=O)(=O)c1ccc2[nH]cc(C(=O)NCCOC)c(=O)c2c1	·	-0.8%	·	·	?	·	-6.3%	7.8%[46.1 µM]
CCOc1cc(/C=N/NC(=O)c2cccnc2)ccc1OC(=O)c1ccco1	-7.2%[46.1 µM]	·	-18.9%	-1.5%	21.4%	·	·	12.2%
CC(C)(C)n1nnnc1CN1C2CCC1CC(NC(=O)Nc1ccccc1)C2 (stereo not drawn)	-1.2%	1.4%	-10.6%	-5.3%	-27.8%	-6.0%	3.3%	-10.4%
OC(COc1ccc(Br)cc1)CN1CCC(Cc2ccccc2)CC1 (stereo not drawn)	·	·	3.2%	-20.7%	-14.9%	-3.9%	·	·
CCOC(=O)c1cc(OC(=O)c2cc(OC)c(OC)c(OC)c2)n(-c2ccccc2)n1	11.7%[46.1 µM]	-4.2%	·	·	-0.1%	·	9.1%	0.7%[46.1 µM]
O=C(O)c1cc(-c2ccccc2)n(-c2ccccc2C(=O)O)n1	17.1%	8.7%	-16.1%	-2.1%	12.5%	2.2%	1.7%	5.8%
Cc1ccc(-c2csc(NC(=O)C[n+]3cc(-c4ccc(C)cc4)n4c3CCC4)n2)cc1	10.0%	·	18.6%	0.2%	0.0%	4.0%	·	7.2%
O=C(CN1CCN(c2ccccc2F)CC1)NC(=O)NC1CCCCC1	-5.1%[46.1 µM]	·	8.7%	6.3%	-13.2%	·	·	-10.6%[46.1 µM]
COc1ccc(OC)c(NS(=O)(=O)c2ccc(SC)cc2)c1	?	-6.2%	-7.0%	-16.3%	25.0%	7.9%	-7.4%	?
O=C(/C=C/c1cn(-c2ccccc2)nc1-c1cccnc1)c1ccco1	?	·	-3.2%	-0.3%	14.1µM*	-2.6%	·	10µM*
CCOc1ccc(C(=O)NC(=S)Nc2ccc(NC(=O)C(C)C)cc2)cc1[N+](=O)[O-]	-0.6%	-3.6%	-5.6%	8.6%	-11.1%	-1.6%	20.7%	-3.1%
CC1=C(C(=O)Nc2cc(Cl)ccc2C)C(c2sccc2C)n2ncnc2N1 (stereo not drawn)	·	-2.1%	·	·	-8.4%	·	-11.0%	-11.9%[46.1 µM]
O=C(Nc1ccc(S(=O)(=O)N2CCOCC2)cc1)c1cccc([N+](=O)[O-])c1	27.4%	·	-2.1%	2.5%	-14.7%	3.5%	·	3.4%
O=C(NC(Cc1ccccc1)C(=O)NCCc1ccccn1)c1ccccc1 (stereo not drawn)	1.9%[46.1 µM]	·	-1.4%	-2.3%	-3.4%	1.3%	·	1.8%
CSc1ccc(S(=O)(=O)NCC(=O)OCC(=O)N(C)CC(=O)Nc2ccccc2Cl)cc1[N+](=O)[O-]	2.8%	·	-16.1%	·	-8.4%	·	·	?
COc1ccc(NC(=O)CN(C)C(=O)c2cc(S(=O)(=O)N3CCCCCC3)ccc2OC)cc1	-4.3%[46.1 µM]	·	6.2%	1.1%	?	·	·	-12.1%
CC(C)Oc1ccc(C(CC(=O)NCc2ccco2)c2ccccc2)cc1 (stereo not drawn)	1.0%	-1.0%	9.3%	-23.5%	?	-49.6%	4.4%	-28.8%[14.3 µM]
CC(C)Cn1nc(-c2ccccc2)c2ccccc2c1=O	0.7%[46.1 µM]	·	-8.2%	1.3%	2.3%	-3.3%	·	?
O=C(CSc1nc(=O)n(Cc2ccccn2)c2c1CCC2)Nc1ccccc1	·	-0.9%	·	·	12.5%	·	-6.0%	6.7%[46.1 µM]
COc1ccc(-c2nc3ncccc3o2)cc1NC(=O)c1ccco1	?	·	1.4%	-2.3%	-1.9%	-1.1%	·	2.2%[46.1 µM]
CN(C)/C=C/C(=C\C(=O)C(F)(F)F)Nc1ccc(C(F)(F)F)cc1	·	·	-3.4%	-1.4%	?	0.4%	·	·
O=C1CC(c2ccco2)CC(O)=C1C=Nc1cc(Cl)ccc1Cl (stereo not drawn)	9.1%	-12.7%	-3.8%	-22.6%	-22.1%	4.9%	-18.1%	-0.7%
Cc1ccc(C(=O)Nc2ncnc3sc4c(c23)CCCCC4)cc1	?	-2.5%	-23.5%	-7.7%	0.0%	0.9%	-4.3%	-26.0%
COc1ccc(NS(=O)(=O)c2cc3c4c(c2)C(C)C(=O)N4CCC3)cc1 (stereo not drawn)	·	·	-1.7%	-2.3%	24.8%	10.1%	·	·
COc1ccc(NC(=O)c2cc(C(C)=O)n3ccccc23)cc1	·	-6.2%	·	·	19.1%	·	-11.4%	5.1%[46.1 µM]
COc1ccc2[nH]cc(CCNC(=O)c3ccc([N+](=O)[O-])cc3)c2c1	?	·	-4.0%	-0.1%	-28.2%	4.2%	·	-6.6%
CC(C)Cn1c(-c2ccc(S(=O)(=O)N3CCCC3)cc2)csc1=Nc1ccccc1	-27.9%[46.1 µM]	-3.1%	·	·	0.0%	·	-18.2%	?
CCOc1ccc(S(=O)(=O)NCCC(=O)NCc2ccccn2)cc1	3.8%	·	-16.0%	0.0%	18.0%	·	·	2.2%
CCOC(=O)c1c(NC(=O)C2CCCO2)sc(C)c1C (stereo not drawn)	-23.5%[46.1 µM]	·	-2.9%	-3.5%	-11.9%	·	·	-11.0%[46.1 µM]
C/C(=N\Nc1nc2ccccc2[nH]1)c1ccc2c(c1)OCO2	11.6µM*	·	-9.1%	6.3%	-13.0%	·	·	?
S=C(Nc1cccnc1)N1CCCCC1	3.3%[46.1 µM]	·	5.4%	-0.9%	-13.5%	5.5%	·	2.4%[46.1 µM]
CCCc1cc(Nc2ccc(C)cc2)n2ncnc2n1	-47.7%	·	29.4%	-7.7%	-20.6%	5.2%	·	?
CN1CC(=O)N(C)c2nc(Br)n(C)c2C1=O	24.6%	10.5%	-10.8%	-8.2%	·	7.4%	3.4%	8.8%
O=C(Cn1c(=O)n(-c2ccc(Cl)cc2)c(=O)c2sc3ccccc3c21)NC1CCCC1	3.0%[46.1 µM]	1.0%	·	·	-22.5%	·	6.2%	4.9%[46.1 µM]
CCCCc1nc(SCC(=O)Nc2cccc(Cl)c2)n[nH]1	4.4%	·	2.5%	-2.7%	-12.0%	-8.4%	·	10.1%
CCn1cc(Br)c(C(=O)Nc2cccc(SC)c2)n1	-4.5%	-8.7%	-11.2%	-8.7%	·	-10.7%	-7.6%	-6.9%
COc1ccc(CN=C2NN=C(c3ccccc3)CS2)cc1	?	·	-5.0%	0.4%	34.5%[activator]	·	·	?
O=C(NC(C(=O)N/N=C/c1c2ccccc2cc2ccccc12)c1n[nH]c(=O)c2ccccc12)c1ccccc1 (stereo not drawn)	?	1.7%	16.5%	?	-9.2%	19.6%	12.6µM*	-19.0%
COc1ccc(NC(=O)c2csc(C)c2)cc1OC	·	·	-13.0%	-2.7%	22.5%	-0.2%	·	·
CC(C)OCCCN(C)C1CCN(S(=O)(=O)c2ccc(-c3cc(C(F)(F)F)no3)s2)CC1	·	·	-4.9%	11.3%	-19.2%	5.8%	·	·
CC(NC(=O)CNC(=O)[C@@H]1Cc2ccccc2CN1)c1ccccc1 (stereo partly drawn)	-9.3%[46.1 µM]	·	2.3%	4.6%	-9.4%	4.9%	·	-3.1%[46.1 µM]
Cc1cccc(C(=O)Nc2ccc(CC(=O)O)cc2)c1	?	3.1%	8.0%	-2.2%	?	7.5%	1.0%	-20.3%
COCCCNC(=O)c1oc2ccc(S(=O)(=O)N(C)C3CCCCC3)cc2c1C	?	-2.2%	11.8%	-18.3%	-5.9%	-49.4%	?	-20.1%
COC(=O)C1CC(O)CN1C(=O)NC1CCCCC1 (stereo not drawn)	-1.2%[46.1 µM]	·	3.1%	0.1%	-5.6%	-4.3%	·	13.5%[46.1 µM]
COc1ccc(CCNC(=O)COC(=O)/C=C/c2cccs2)cc1	-0.4%[46.1 µM]	·	-4.7%	-4.2%	6.1%	·	·	-6.6%
